# D2 ag = human D2 receptor agonism in beta-arrestin assay; DiscoveRx PathHunter D2 beta-arrestin, luminescence, 90 min; 100% = 57 uM dopamine signal; P14416; activation, % (no concentration beside the values); hit rate 0.084% among 360,000; in the data active = activation above about 40%; inconclusive = about 15% to 40%; inactive = below about 15%; also: compound concentration not given in the record; the text of the record calls up to 30% inactive
# Target sequence (P14416 whole entry, looked up): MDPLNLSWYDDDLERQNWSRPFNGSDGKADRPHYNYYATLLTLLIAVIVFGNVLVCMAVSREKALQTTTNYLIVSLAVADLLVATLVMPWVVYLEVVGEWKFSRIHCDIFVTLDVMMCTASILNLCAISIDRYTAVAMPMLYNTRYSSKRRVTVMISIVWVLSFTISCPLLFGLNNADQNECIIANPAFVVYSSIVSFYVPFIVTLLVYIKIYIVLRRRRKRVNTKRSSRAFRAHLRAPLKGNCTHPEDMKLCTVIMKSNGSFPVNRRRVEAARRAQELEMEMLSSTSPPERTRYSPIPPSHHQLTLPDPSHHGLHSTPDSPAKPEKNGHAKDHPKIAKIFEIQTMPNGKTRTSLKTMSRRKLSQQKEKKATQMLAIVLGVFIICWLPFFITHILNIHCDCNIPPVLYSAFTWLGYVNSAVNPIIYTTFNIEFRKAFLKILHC
#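 Agonist mode: compounds alone added to overnight-plated D2 PathHunter cells for 90 min at 37 C, with 57 uM final dopamine (EC100) defining full response. Beta-arrestin recruitment detected by chemiluminescent reagent, read after 1 h at ambient temperature.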
# Sfp PPTase inh = blocks B. subtilis Sfp PPTase activity | Biochemical Sfp PPTase activity, qHTS | Potency, µM, for the others: max response, negative = inhibition, actives largely listed as inhibitors | hit rate 3.5% among 310,000 | AID 1490; active = well fitted inhibition curve with a large enough effect; inconclusive = small, poorly fitted or top-dose-only effect, or another doubt; inactive = no such curve, though single readings can be large or run the other way;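 also: the enzyme is Sfp with the accession as filed and its product quenches rhodamine fluorescence; potency is read from the fitted curve at half-maximal effect; 0% = enzyme reaction without inhibitor and -100% = no enzyme wells; top concentration of the series not given in the record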
#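 Step 1, compound plus 15 nM Sfp-PPTase, 15 min, room temperature. Step 2, add rhodamine-CoA (5 uM) and BHQ-2-YbbR (12.5 uM). Step 3, read 525/598 nm fluorescence at 0 and 30 min.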
# gsp agonist = activates gsp, the McCune-Albright syndrome mutation; gsp mutant cells, cAMP HTRF, 30 min; control for the full effect not named in the record; Potency, µM (series often up to 76.9 µM), for inactives: at the highest dose activation (cAMP increase), usual class: activators; hit rate 0.13% among 340,000; AID 624287; active = well fitted activation curve with a large enough effect; inconclusive = small, poorly fitted or top-dose-only effect, or another doubt; inactive = no such curve, though single readings can be large or run the other way; cell line not stated here;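 also: phosphodiesterase inhibitor Ro 20-1724 added with compounds to block cAMP breakdown; potency is read from the fitted curve at half-maximal effect; nearly all actives have a fitted effect of over 60% in size; about a fifth of the inactives were tested at one dose only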
#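 Cells in DMEM/10% FBS with G418 were pretreated with compounds in DMSO plus […] (300 uM stock) for 30 min at 37C. cAMP was measured by HTRF (cAMP-d2 plus anti-cAMP antibody-K) after 30 min at room temperature.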
# ClpP mod = qHTS Assay for Activators of ClpP; Potency, µM (doses to about 57.5 µM), inactives show at the highest dose activity change, negative = active; hit rate 1.9% among 340,000; purified B. subtilis ClpP, FRET peptide cleavage, 20 min; active = well fitted falling curve with a large enough effect; inconclusive = small, poorly fitted or top-dose-only effect; inactive = no such curve, though single readings can be large or run the other way; also: potency is read from the fitted curve at half-maximal effect; the source files actives as falling curves though it sought activators and does not explain the sign; nearly all actives have a fitted effect of over 65% in size; many hits overshoot -100%
# Target sequence (P80244 whole entry, looked up): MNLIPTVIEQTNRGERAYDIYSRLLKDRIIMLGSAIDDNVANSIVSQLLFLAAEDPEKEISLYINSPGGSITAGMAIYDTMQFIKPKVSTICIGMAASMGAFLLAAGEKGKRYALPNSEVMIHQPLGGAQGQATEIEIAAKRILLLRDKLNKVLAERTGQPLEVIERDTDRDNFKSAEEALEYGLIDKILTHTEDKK
#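 Buffer: 100 mM Tris/HCl pH8, 100 mM KCl, 0.05% low protease BSA, 2.5% glycerol, 0.01% Tween-20. ClpP 10 microg/mL final; 20 min RT; delta FRET normalized to ADEP and DMSO controls.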
# Menin MLL FP FL = menin-MLL binding inhibition, fluorescein peptide. Fluorescence polarization, fluorescein-MLL peptide displacement from menin. FP activity change, % at 61.4 µM. 290,000 tested, under 10 active. AID 1766; inconclusive = falling polarisation curve, or a change in total fluorescence; inactive = total fluorescence flat and polarisation flat or rising; no compound was filed as active; the % refers to the polarisation; negative = inhibition;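 also: % of control where 0% means no effect; inhibitors lower the polarisation; unlabelled MLL peptide was the positive control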
# PINK1 expr mod = PINK1 expression modulation; AID 624263; PINK1 immunofluorescence, high-content cytometry, 24 h; hit rate 0.2% among 410,000; Potency, µM (doses to about 76.6 µM), without a hit: top-dose activation (PINK1 increase), hits mostly activators; active = well fitted activation curve with a large enough effect; inconclusive = small, poorly fitted or top-dose-only effect; inactive = flat fitted curve, though single readings scatter; cell line not stated here;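 also: potency is read from the fitted curve at half-maximal effect; % of control where 0% means no effect; nearly all actives have a fitted effect of over 65% in size; a mitochondrial uncoupler was the plate control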
#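 Compound titrations (5 concentrations, 24 h) on a stable cell line; DMSO and CCCP controls. Endpoint: fixed-cell PINK1 immunofluorescence with mitochondrial, cell and nuclear markers, scanned by microplate cytometer.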
# gsp antag = antagonists of gsp mutant (McCune-Albright syndrome); AID 624288; hit rate 0.4% among 340,000; gsp-mutant cells, cAMP HTRF, 30 min; control for the full effect not named in the record; Potency, µM (highest dose often 76.9 µM), for inactives: at the top dose activity change, negative = inhibition, hits mostly inhibitors; active = falling curve of any shape with a large fitted effect; inconclusive = falling curve, mostly with a smaller effect; inactive = flat or rising curve; cell line not stated here;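 also: intracellular cAMP measured with PDE inhibitor Ro 20-1724 present during compound exposure; potency is read from the fitted curve at half-maximal effect; % is scaled to controls: 0 for no effect and ±100 for the full control effect; nearly all actives have a fitted effect of over 65% in size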
#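 HTRF cAMP measurement after 30 min RT detection following 30 min, 37C compound treatment alongside […] (added as 300 uM solution) in G418-selected cells seeded at 2000/well and grown 16–24 h.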
# * marks the source's active call; other numbers are inactive results; ? = inconclusive; . = not tested or not shown; & = joins results of further samples; [ ] = remark or other dose.
SMILES,D2 ag,Sfp PPTase inh,gsp agonist,ClpP mod,Menin MLL FP FL,PINK1 expr mod,gsp antag
Cc1ccc(S(=O)(=O)N2CCN=C2SCc2ccc(Cl)c(Cl)c2)cc1,-1.7,1%,-6%,-2.7%,4.5,-0.6%,7%
COc1ccccc1CC(=O)NCC1CCCO1 (stereo unspecified),-2.1,-12%,28%,0.3%,0.2,0.6%,-3%
COc1ccc(CNCCSc2nnnn2C)cc1OC,-3.5,?,?,-0.8%,2.6,2.2%[38.3 µM],5%
CCOC(=O)CSc1nc(-c2ccc3c(c2)OCO3)ccc1C#N,-2.7,8%,24%,25µM*,0.4,13%,-9%
CCOC(=O)CN1C(=O)S/C(=C/c2cc(C)n(C)c2C)C1=O,-2.2,.,1%,-0.8%,.,-1.3%,-11%
COc1cc(/C=C(\C#N)C(=O)Nc2ccccc2)ccc1OCCN1CCOCC1,1.5,0%,11%[15.4 µM],-3.7%,-1.6,0.2%,-16%
Cc1nn(-c2ccccn2)c2c1C(=O)C(Br)CC2 (stereo unspecified),?,4µM*,6%[15.4 µM],-6.2%,-4.4,-0.5%,6%
CC(=O)Nc1ccc(S(=O)(=O)N2CCCCC2C(=O)O)cc1 (stereo unspecified),-6.3,9%,-52%[inhibitor],-1.8%,-0.1,2.6%,7%
COc1cc2cnc(-c3ccccc3)c(-c3cc(OC)c(OC)c(OC)c3)c2cc1OC,0.6,.,29%,-2.9%,.,13%,7%
Nn1c(SCC(=O)N2CCc3ccccc3C2)nnc1-c1cccs1,-4.8,17%,16%,-8.3%,-0.5,0.8%,0%
N[C@@H](Cc1ccccc1)c1nnc(SCc2ccccc2F)o1,-2.6,15%,-25%,-0.1%,-0.5,-0.3%,22%
FCCCOc1ccc(/C=N/OCc2ccc(Cl)cc2Cl)cc1,0.7,-3%,-37%[inhibitor],-1.6%,3.7,5.3%,3%
CCOC(=O)c1c(NC(=O)CC2Sc3ccc(C(F)(F)F)cc3NC2=O)sc(C)c1C (stereo unspecified),0.4,25%,-16%,1.6%,-2.4,19%,10%
COc1cc(O)c(C(CC(=O)N2CCCC(C)C2)c2ccc3c(c2)OCO3)c(OC)c1 (stereo unspecified),1.4,11%&2%,.,-1.5%,-6.5&2.6,-0.2%,-2%
Cc1cccc(C(=O)Nc2nnc(Cc3ccccc3)s2)c1,12,27%,-7%,.,-2.9,-0.3%,10%
CC(NS(=O)(=O)c1ccc(Br)cc1)C(=O)NCC1CCCO1 (stereo unspecified),2.6,16%,-14%,.,-2.4,1.4%,12%
CC(=O)N1CCN(Cc2nc3cc(NC(=O)c4ccccc4C)ccc3n2C)CC1,-2.5,-10%,1%,-0.8%,-7.5,1.7%,4%
O=c1[nH]cn[nH]1,-2.5,-2%,.,-1.2%,0.0,2.1%,-6%
CCOC(=O)C1CCCN(c2c(Nc3ccc(C)c(C)c3)c(=O)c2=O)C1 (stereo unspecified),-0.3,21%,-70%[inhibitor],2.7%,1.7,4.3%,-17%
Cc1nnsc1-c1c(C(=O)O)c(C)nn1-c1ccc(OC(F)(F)F)cc1,-1.4,3%,25%[15.4 µM],.,2.9,-1.4%,-19%
Cc1cccc(C(=O)Nc2ccccc2C(=O)OCc2c(C)noc2C)c1,-2.1,-1%,18%,?,-0.5,4.3%,14%
CCCn1cc(S(=O)(=O)c2ccc(C)cc2)c(=O)c2cc(OC)ccc21,6.4,11%,-3%,3.6%,-2.2,1.5%,9%
C/C(N)=C(/C#N)C(=O)COC(=O)c1ccc(OCC2CCCO2)cc1 (stereo unspecified),-4.2,-8%,?,.,1.2,1.2%,-2%
Cc1ccc(S(=O)(=O)N2C[C@@H]3[C@H]4CC[C@H](C4)[C@@H]3[C@@H](C)[C@@H]2c2ccn([Si](C(C)C)(C(C)C)C(C)C)c2)cc1,-2.2,.,.,0.3%,.,0.0%,4%
COc1ccc(C(=O)NNC(=O)CSc2nnnn2-c2cc(OC)cc(OC)c2)cc1,-1.1,4%,3%[15.4 µM],.,6.9,-2.1%,-1%
CCC(C)c1ccc(N(C(=O)c2ccco2)C(C(=O)NC2CCCC2)c2cccnc2)cc1 (stereo unspecified),6.1,-1%,-11%[15.4 µM],.,-0.5,1.5%,-29%
Cc1cc(C)c(NC(=O)c2ccccc2N(C)S(C)(=O)=O)c(C)c1,-2.3,7%,15%,0.6%,-0.7,6.4%[38.3 µM],10%
COc1cc(S(=O)(=O)Nc2ccc(C)cc2)ccc1N=Cc1c(C)[nH]n(-c2ccc(C)cc2)c1=O,-3.0,1%,18%[15.4 µM],-0.2%,1.5,4.5%,-22%
Cc1ccc(-c2cc(C(=O)N3CCOCC3)no2)cc1,-0.9,12%,-12%[15.4 µM],.,5.5,0.9%,15%
CCN1C(=O)c2cccc3c(S(=O)(=O)NCCc4c[nH]c5ccccc45)ccc1c23,-1.4,4%,0%,3.1%,-2.2,0.7%,-35%
CCc1cc2c(CN3CCN(C)CC3)cc(=O)oc2cc1O,-3.8,-4%,?,?,0.6,-0.6%,0%
CC(CC(=O)Nc1ccc2c(c1)c(=O)n(C)n2Cc1cccc(C(F)(F)F)c1)C(F)(F)F (stereo unspecified),1.5,.,.,4.2%,.,10%,.
COc1cc(/C=N/N2C(=O)C3C4c5ccccc5C(c5ccccc54)C3C2=O)ccc1O (stereo unspecified),-1.2,-7%,-8%,-0.5%,7.2,?,-16%
COc1ccccc1NC(=O)Cn1ccn(-c2cccc3ccccc23)c(=O)c1=O,-8.5,.,-7%[15.4 µM],1.4%,.,3.2%,1%
O=C(NC1CC(=O)N(c2ccc(Cl)cc2)C1)N1CCN(C(=O)c2ccco2)CC1 (stereo unspecified),3.6,.,2%,1.6%,.,1.3%,9%
C#CCSc1nc(Cc2ccc(Cl)cc2)nc2ccccc12,-2.1,1%,26%,0.4%,-0.9,6.0%[38.3 µM],6%
O=C(O)c1csc(-c2ccccc2)n1,6.4,9%,?,0.3%,4.0,0.9%,5%
Cc1ccc(S(=O)(=O)NC2(C(F)(F)F)NC(=O)N(c3ccccc3F)C2=O)cc1 (stereo unspecified),-4.6,15%,2%[15.4 µM],-4.4%,1.7,6.5%,6%
CC1(C(=O)Nc2ccccc2)CCN1C(=O)Cc1ccc(-c2ccccc2)cc1 (stereo unspecified),6.5,.,.,-0.1%,.,0.3%,.
COc1cc(OC)cc(C(=O)Nc2ncc3c(n2)CC(C)(C)CC3=O)c1,-1.0,18%,12%,-2.3%,-0.5,-1.6%,6%

# Continued, overlapping the part above by two compounds.
SMILES,D2 ag,Sfp PPTase inh,gsp agonist,ClpP mod,Menin MLL FP FL,PINK1 expr mod,gsp antag
CC1(C(=O)Nc2ccccc2)CCN1C(=O)Cc1ccc(-c2ccccc2)cc1 (stereo unspecified),6.5,.,.,-0.1%,.,0.3%,.
COc1cc(OC)cc(C(=O)Nc2ncc3c(n2)CC(C)(C)CC3=O)c1,-1.0,18%,12%,-2.3%,-0.5,-1.6%,6%
COC(=O)COc1cc(C)cc2oc(=O)c(CC(=O)OC)c(C)c12,-0.6,1%,-3%,14µM*,6.6,0.1%,-2%
COc1ccc(NC(=O)C(NC(=O)Cc2cccs2)c2ccc(C)cc2)cc1 (stereo unspecified),-3.4,10%,-7%,0.7%,0.3,20%,7%
CC(C)(C)n1nnnc1C(c1ccc(F)cc1)N1CCN(Cc2ccc3c(c2)OCO3)CC1 (stereo unspecified),-0.9,21%,-35%[inhibitor],0.0%,0.5,-0.6%,-1%
Cn1c(NCc2ccccc2)cc(=O)n(C)c1=O,-3.5,16%,-17%,0.0%,2.4,0.4%,-2%
COc1ccccc1NC(=O)COc1cccc(-n2cnnn2)c1,-2.7,11%,13%,-1.2%,1.7,-6.6%[38.3 µM],-1%
CCN(C(=O)COC(=O)c1cnc(C)cn1)C1CCS(=O)(=O)C1 (stereo unspecified),-4.5,.,-5%[15.4 µM],-10%,.,0.3%,0%
COC(C(=O)NNS(=O)(=O)c1ccc([N+](=O)[O-])cc1)c1ccccc1 (stereo unspecified),-4.0,2%,15%,.,.,-0.8%,6%
COc1c(Cl)cc(Cl)cc1C(=O)Nc1ccc(NC(C)=O)cc1,-0.7,11%,5%,.,2.0,-0.9%,4%
Cc1cc(C)c2c(CC(=O)Nc3ccc(Cl)cn3)coc2c1,1.8,6%,13%,-16%,-0.3,4.6%,4%
COc1ccc(/C=C(/NC(=O)c2ccco2)C(=O)NCCc2ccccc2)cc1,-1.3,14%,11%,-3.3%,.,2.6%,-3%
O=C(NCCCN1CCOCC1)c1ccc2c(c1)N(Cc1ccccc1)C(=O)c1ccccc1S2=O (stereo unspecified),-0.2,11%,32%,-1.3%,.,-0.4%,7%
N#C/C(=C\c1ccc(F)cc1F)S(=O)(=O)c1ccccn1,-7.5,-14%,15%[15.4 µM],1.2%,7.3,1.4%,-10%
CCOc1cc(CN2CCCC(C(=O)c3cccc(C(F)(F)F)c3)C2)ccc1O (stereo unspecified),0.4,-14%,13%[15.4 µM],.,-2.9,8.2%,.
O=C(c1cc2ccccc2o1)N1CCCCCC1,-4.4,-4%,-33%[inhibitor],-0.4%,-2.8,-1.8%,1%
O=S(=O)(NC1CCCC1)c1ccccc1Br,-2.0,9%&-3%,.,-0.2%,-0.4&0.7,0.4%,9%
COc1ccc(OC)c(NC(=O)NC2(C(F)(F)F)Oc3ccccc3O2)c1,3.5,0%,-8%,1.2%,1.6,4.6%,4%
COc1ccc(/C=N\NS(=O)(=O)c2ccc(Cl)cc2)cc1COc1ccccc1[N+](=O)[O-],-0.9,-10%,-27%,2.2%,1.1,-0.7%,-24%
COc1ccccc1NC(=O)CC12CC3CC(CC(Br)(C3)C1)C2,0.5,-4%,10%[15.4 µM],.,0.5,0.9%,?
COCCN(C(=O)Cn1nnc2ccccc21)C(C(=O)NC1CCCC1)c1cc(OC)ccc1OC (stereo unspecified),-0.1,-2%,7%,0.3%,3.6,-1.1%,?
